# Source: PubChem (several laboratories)
# Bfl-1 A1 inh – caspase 3/7 activation in MEF A1-2A-BIM cells, primary screen, A1 inhibitor project, cell-based, luminescence, HTS; Caspase-Glo 3/7 luminescence, 3 h; percent of clofoctol response, vehicle zero; caspase activation, % (no concentration beside the values); 330,000 tested, 0.066% active; AID 2462, 2010;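 active = over half of replicate activation scores above 10%, or exactly half above 10 with the replicate mean above 10; inconclusive = replicate mean below 10 yet half the replicates above 10; inactive = over half of replicates below 10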;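 also: wells of about 30 µL received 50 nL stock; many hits fall short of the cut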
# Beta apoptosis – inhibitors of cytokine-induced beta cell apoptosis, primary screen, luminescence; protection from apoptosis, % (test concentration not listed); AID 435005, 2010; 300,000 tested, 0.8% active; INS-1E cytokine-induced death, ATP luminescence, 48 h; percent of positive-control rescue, neutral wells zero;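 active = all replicates at 75% or more, or half of them and the mean; inconclusive = half reach 75% but not the mean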;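 also: 0% = cytokine-treated negative control wells and 100% = positive control rescue; higher means more ATP so stronger rescue from cytokine killing; wells of about 40 µL received 100 nL stock; the first replicate is given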
# Calb FLC – C. albicans growth inhibition with fluconazole, primary screen, CaCi-2 strain, Alamar Blue fluorescence; C. albicans CaCi-2 (fluconazole-resistant clinical isolate) + fluconazole, 48 h; growth inhibition, % (test concentration not listed); 300,000 tested, 0.57% active;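 active = most replicates above 75%; inconclusive = exactly half above 75%; inactive = most below 75%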;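 also: all wells also contain fluconazole at 8 µg/ml as a sub-toxic cotreatment; 0% = median of DMSO wells and 100% = median of geldanamycin control wells; wells of about 8 µL received 7.5 nL stock; the first replicate is given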
# LANA-H2B inh – blockers of LANA interaction with H2A/H2B – biochemical, FP readout, HTS, primary screen. cell-free LANA-H2A/H2B peptide, fluorescence polarization. 320,000 tested, 0.6% active. inhibition, % (no concentration beside the values). AID 2629, 2010. Protein LANA1 (Human herpesvirus 8 type P (isolate GK18)), Q9QR71; in the data active = inhibition mostly above about 10%, no sharp cut-off; inactive = mostly below about 6.7%;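 also: stock transfer was 7.5 nL into about 10 µL; 0% = median of vehicle wells and 100% = median of positive control wells; one replicate is shown; the record names a cut of 25% in any replicate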
# rRNA inh HTS – reduced GFP signal of wild-type E. coli, primary screen, bacterial rRNA inhibitor project, GFP/RFP fluorescence, OD600, single point. E. coli WT GFP vs humanized-ribosome RFP mutants, 24 h; hits give low values; DMSO median 0, no signal -100. GFP signal change (wild-type ribosome), % (test concentration not listed). 350,000 tested, 1.6% active;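 active = significant combined selectivity score with lowered wild-type GFP, culture density cut under 30%, mutant RFP and density less affected; inactive = any of these conditions unmet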; also: one replicate is shown; some compounds called inactive have numbers as strong as hits
# B2AR ag – beta2AR agonists driving receptor internalization, primary screen, cell-based, FAP fluorogen, flow cytometry; Beta-2 adrenergic receptor (Homo sapiens), P07550; Am2.2-beta2AR cells; reference of the scale not given here; response, % (no concentration beside the values); 340,000 tested, 0.43% active;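 active = response above a set limit, near 3 SD of response in nonfluorescent compounds, cut at about 42% in these data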;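 also: stock transfer was 100 nL into about 11 µL; a reference agonist was the positive control; negative values mostly stem from fluorescent compounds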
# Target sequence (P07550 whole entry, looked up): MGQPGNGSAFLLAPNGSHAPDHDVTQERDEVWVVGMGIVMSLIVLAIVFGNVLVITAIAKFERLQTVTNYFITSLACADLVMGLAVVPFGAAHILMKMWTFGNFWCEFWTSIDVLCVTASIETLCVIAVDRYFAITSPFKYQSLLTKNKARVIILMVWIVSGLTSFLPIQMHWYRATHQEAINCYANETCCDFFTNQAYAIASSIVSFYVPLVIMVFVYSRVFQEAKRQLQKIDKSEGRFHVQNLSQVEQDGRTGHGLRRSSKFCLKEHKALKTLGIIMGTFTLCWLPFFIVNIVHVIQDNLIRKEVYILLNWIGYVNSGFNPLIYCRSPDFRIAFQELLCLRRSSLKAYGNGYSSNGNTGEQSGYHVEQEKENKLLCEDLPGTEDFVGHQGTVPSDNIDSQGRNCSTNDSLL
# T cruzi inh – inhibitors of intracellular T. cruzi growth, primary screen, luminescence, NIH3T3 host cells; AID 1885, 2009; T. cruzi beta-gal in NIH3T3, 90 h; 300,000 tested, 1.4% active; inhibition, % (test concentration not listed);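 active = mean inhibition across valid replicates above about 55%, limit read from the data; inconclusive = mean below that limit but half or more replicates reach it; inactive = mean below it, under half of replicates reach it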;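 also: signal also drops with host cell toxicity which is not excluded here; 0% = plate median of DMSO wells and 100% = zero luminescence signal; higher percent means less beta-gal luminescence so fewer parasites; stock transfer was 50 nL into about 50 µL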
# ALR H2O2 inh – inhibitors of human ALR sulfhydryl oxidase, primary screen, biochemical, H2O2 detection, HRP-luminol luminescence, single point; 290,000 tested, 3.8% active; AID 485317, 2010; FAD-linked sulfhydryl oxidase ALR (Homo sapiens), P55789; inhibition, % (test concentration not listed); purified ALR, DTT oxidation;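 active = mean and each replicate at 75% or more; inconclusive = only one of the two met; inactive = neither met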;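 also: stock transfer was 7.5 nL into about 7.5 µL; 0% = neutral wells and 100% = wells with inactivated enzyme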
# Target sequence (P55789 whole entry, looked up): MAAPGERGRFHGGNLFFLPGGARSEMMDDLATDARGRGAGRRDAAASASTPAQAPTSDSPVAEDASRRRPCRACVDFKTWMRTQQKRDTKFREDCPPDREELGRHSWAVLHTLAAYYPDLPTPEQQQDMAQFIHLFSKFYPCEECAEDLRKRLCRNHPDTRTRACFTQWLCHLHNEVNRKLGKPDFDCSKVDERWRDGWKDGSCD
# rRNA inh HTS OD600 – second read-out of rRNA inh HTS, no call of its own (marks repeat the call); OD600 change, %; measured here: OD600 growth;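 optical density of the mix in the first replicate; 0 = DMSO median and -100 = no signal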
# rRNA inh HTS RFP – further read-out of rRNA inh HTS, marked with its call; RFP signal change, %; measured here: RFP humanized mutant strains;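 first replicate; 0 = DMSO median and -100 = no signal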
# An asterisk follows results filed as active; ? = inconclusive; · = not tested or not shown. Not all compounds are listed; rates above refer to the full screens.
SMILES,Bfl-1 A1 inh,Beta apoptosis,Calb FLC,LANA-H2B inh,rRNA inh HTS,rRNA inh HTS OD600,rRNA inh HTS RFP,B2AR ag,T cruzi inh,ALR H2O2 inh
Cc1ccc(NC2CCCN(C(=O)c3cn4cc(Cl)ccc4n3)C2)cc1C (centres undefined),·,·,-7,·,-18,-21,-2.9,-15,15,99*
O=S(=O)(Nc1cccc(S(=O)(=O)N2CCOCC2)c1)c1ccc2c(c1)OCCO2,-0.9,-3,-7,-4.6,-33,-45,-7.3,-5,-10,5
C=CCOc1ccc(/C=C/C(=O)OCC(=O)N2CCN(C(C)=O)CC2)cc1,0.9,-13,·,-1.0,-3,-7,-11,-5,·,0
CC(=O)c1sc(NC(=O)c2ccc(Cn3cc(Br)cn3)o2)nc1C,-1.7,3,-2,0.3,·,·,·,-10,-3,32
CCOC(=O)C1CCN(CC(=O)Nc2c(C(=O)OC)[nH]c3cccc(C)c23)CC1,0.8,-2,0,-5.4,·,·,·,1,0,·
O=[N+]([O-])c1cc2c(cc1[N+](=O)[O-])OCCOCCOCCOCCO2,0.7,-7,5,2.2,7,8,-2.1,0,-20,-46
COc1cccc(CN(C)C(=O)c2cc(S(=O)(=O)N3CCN(c4ccccc4)CC3)ccc2Cl)c1,0.0,17,-3,4.7,-10,-12,-3.8,15,4,-2
Cc1ccc(S(=O)(=O)Nc2cccc(C(=O)NCCCN3CCCC3=O)c2)cc1F,-0.5,7,-1,-3.2,7,9,-2.0,3,-5,-2
CSc1ncccc1C(=O)N1CCN(S(=O)(=O)c2ccc(C)cc2)CC1,0.4,-5,-4,2.5,7,4,-2.1,5,-4,0
CS(=O)(=O)N1CCC(C(=O)Nc2cc(Cl)cc(Cl)c2)CC1,0.6,-2,-16,0.3,-5,-5,-0.1,6,9,2
Cc1cc(C)n(-c2ccc(NC(=O)C3CCCCN3C(=O)c3sccc3C)cc2)n1 (centres undefined),-0.4,·,-7,0.4,0,1,1.5,-15,21,-14
O=S(=O)(NCCc1csc(-c2ccccc2)n1)c1cccnc1,-0.2,-4,3,-2.5,-12,-4,1.2,-5,8,·
O=C(N/N=C/c1ccc(OCc2ccccc2)cc1)c1ccc(O)cc1,0.2,0,5,7.2,-19*,6.2*,7.3*,10,-34,·
Cc1cccc(C)c1N=Cc1c(C(F)(F)F)[nH][nH]c1=O,0.3,-7,4,-4.0,8,7,2.4,3,-4,-6
Cc1ccccc1NC(=S)NNC(=O)c1ccoc1C,-0.6,0,-16,-0.1,·,·,·,1,-3,31
CCOc1cccc2sc(Cl)nc12,-0.4,-4,-3,2.2,15,1,-2.6,-6,-2,-14
COC(=O)C1=C(C(=O)OC)SC2(S1)C(C(=O)OC)=C(C(=O)OC)SC1=C2c2cc(C)ccc2NC1(C)C,0.2,-4,4,0.8,·,·,·,17,14,2
COc1cnn(-c2cccc(Cl)c2)c(=O)c1Cl,0.9,-8,-5,3.9,13,7,1.9,9,-16,-5
O=C(CNC(c1ccccc1)c1ccccc1)NCc1ccccc1Cl,1.1,0,-13,-0.3,-46,-71,-3.6,5,13,2
O=C(CSc1nc2ncccc2[nH]1)NCc1ccccc1,0.4,3,-6,2.1,11,9,-4.0,1,-11,3
CCCOc1ccc(-c2nnn(CC(=O)N3CCCC(C)C3)n2)cc1 (centres undefined),-0.1,-3,-1,-4.6,9,2,2.2,-22,-1,-6
CS(=O)(=O)NCCCNc1ccc(C(F)(F)F)cc1[N+](=O)[O-],0.4,1,5,-0.5,-3,2,3.1,-12,9,-3
Cc1cc(C)c(CN2CCC(n3nccc3NC(=O)C3CCCC3)CC2)cc1C,-0.7,3,-1,5.4,0,-4,-0.3,-10,-19,1
COc1ccc(NC(=O)N2CCCC(C(=O)Nc3ccccc3OC)C2)cc1 (centres undefined),-0.3,-3,-1,-1.3,3,6,-0.5,-2,-11,-2
Cc1cc(C(=O)N2CCc3ccccc3C2)n[nH]1,-2.3,-3,7,-2.1,4,5,0.5,-3,-22,-3
Cc1onc(-c2ccccc2Cl)c1C(=O)OCC(=O)N1CCC(C)CC1,0.6,0,·,-10,-7,-37,-2.5,-1,·,·
Cn1cc(CN2CCN(CC(C)(C)C)C(CCO)C2)c2ccccc21 (centres undefined),1.3,1,-2,-1.3,-6,-4,-0.2,-5,-4,·
Cn1nc(C(F)(F)F)c(CN2CC(C)(C)C2=O)c1N1CCOCC1,0.1,-4,5,6.0,2,9,-1.7,7,-5,·
CC(=O)c1cccc(NC(=O)NNC(=O)CCC(=O)Nc2ccc(C)c(C)c2)c1,-0.8,-3,4,-2.2,1,-5,1.0,1,-3,·
CCN(CC)c1ccc(S(=O)(=O)N2CCOCC2)cc1NC(=O)COC(=O)c1ccco1,-1.0,·,2,-0.1,9,6,1.3,-10,-1,0
Nc1ncc(Br)cc1S(=O)(=O)NCCC(=O)NCCc1ccc(Cl)cc1,-1.7,-8,-3,-6.1,-2,-2,-1.2,-12,41,-9
CCn1c(Cc2ccc(OC)cc2)nnc1SCC(=O)NC1CCCCC1,0.2,-4,-5,-1.4,·,·,·,6,2,-4
CCOc1ccc(CCNC(=O)CCn2ccc3cc(S(=O)(=O)N4CCCC4)ccc32)cc1,-0.3,4,0,1.7,-21*,-11*,-1.0*,-9,6,-3
COc1ccc(Cc2nnc(NS(=O)(=O)c3ccc(Cl)cc3)s2)cc1OC,0.0,-7,7,-3.7,-33,-47,-9.8,7,6,-25
O=C(O)CCC1(CCC(=O)O)c2ccccc2-c2ccccc21,-0.9,-8,12,-5.8,16,13,4.3,-6,-8,-13
CC(C)(CO)N=C1NS(=O)(=O)c2cc([N+](=O)[O-])ccc21,1.0,10,-7,3.3,2,7,-4.3,-4,9,-48
c1ccc(Nc2ccnc(Nc3ccccc3)n2)cc1,-0.6,·,57,-5.6,-42,-71,-7.0,8,32,96*
Cc1nc(SCn2nnc3ccccc3c2=O)nc(C)c1C,0.8,-2,26,-0.9,·,·,·,-27,15,-1
CCN(CC(=O)Nc1c(F)cccc1F)C(=O)/C=C/c1cn(Cc2ccccc2)nc1-c1cccnc1,-0.6,-3,-11,-5.0,6,-3,2.5,9,14,-3
O=C(CSc1nnc2ccccn12)Nc1ccc2c(c1)OCO2,-0.9,0,17,-2.2,21,15,7.1,-6,22,68
Cc1csc(=Nc2ccccc2)n1CCO,1.1,-1,-13,-2.0,5,8,-2.2,-1,-9,99*
COc1ccccc1NC(=O)Cn1c(=O)n2nc(C)nc2c2ccccc21,0.2,-4,33,1.6,1,1,-1.0,24,-7,·
Cc1cc(C)n(/N=C/c2cccs2)c(=O)c1C#N,0.0,-2,?,-1.0,1,3,-1.2,-4,-24,-3
CC1C/C(=N\NC(=O)CCc2ccc(S(=O)(=O)N3CCOCC3)cc2)CC(C)(C)C1 (centres undefined),2.7,-5,14,3.7,·,·,·,-2,-3,-11
CC(=O)c1c(C(C)=O)c(C)n(C2CCCCC2)c1C,-2.6,-3,-5,4.1,·,·,·,5,-3,-8
O=C(Nc1ccc(Cl)cc1)C1(S(=O)(=O)c2ccccc2)CC1,-0.2,-4,·,-5.4,-10,-6,0.1,0,·,·
O=C(O)c1cccc(S(=O)(=O)NCCc2ccccc2)c1,2.3,-4,12,-4.1,11,7,0.7,-2,-6,0
C=CCNc1nc(C)nc(OC)n1,-0.2,2,4,-4.7,·,·,·,·,-4,0

# 3 of the entries above in order of their number in rRNA inh HTS OD600, falling.
molecule | rRNA inh HTS OD600
O=C(CSc1nnc2ccccn12)Nc1ccc2c(c1)OCO2 | 15
COc1ccccc1NC(=O)Cn1c(=O)n2nc(C)nc2c2ccccc21 | 1
c1ccc(Nc2ccnc(Nc3ccccc3)n2)cc1 | -71

# Reprinted at random: four records from the list, in no set order.
SMILES,Bfl-1 A1 inh,Beta apoptosis,Calb FLC,LANA-H2B inh,rRNA inh HTS,rRNA inh HTS OD600,rRNA inh HTS RFP,B2AR ag,T cruzi inh,ALR H2O2 inh
Cc1cc(C)n(-c2ccc(NC(=O)C3CCCCN3C(=O)c3sccc3C)cc2)n1 (centres undefined),-0.4,·,-7,0.4,0,1,1.5,-15,21,-14
Cc1ccc(NC2CCCN(C(=O)c3cn4cc(Cl)ccc4n3)C2)cc1C (centres undefined),·,·,-7,·,-18,-21,-2.9,-15,15,99*
C=CCNc1nc(C)nc(OC)n1,-0.2,2,4,-4.7,·,·,·,·,-4,0
C=CCOc1ccc(/C=C/C(=O)OCC(=O)N2CCN(C(C)=O)CC2)cc1,0.9,-13,·,-1.0,-3,-7,-11,-5,·,0

# Following part:
SMILES,Bfl-1 A1 inh,Beta apoptosis,Calb FLC,LANA-H2B inh,rRNA inh HTS,rRNA inh HTS OD600,rRNA inh HTS RFP,B2AR ag,T cruzi inh,ALR H2O2 inh
COc1ccc(/C=C2\SC(=O)N(CCNC(=O)C3CC(=O)N(c4ccccc4)C3)C2=O)cc1 (centres undefined),0.2,-5,1,1.5,·,·,·,-3,4,2
COC(=O)c1cc(NC(=O)c2c(-c3c(Cl)cccc3Cl)noc2C)ccc1N1CCOCC1,0.1,3,10,-7.7,-9,-9,3.1,5,2,·
O=C(CSc1nnc(C2CC2)n1Cc1ccccc1)Nc1cccnc1Cl,0.3,-4,19,3.0,-12,-4,-1.3,-4,0,11
COc1ccc(CCNC(=O)CSc2nc3[nH]ncc3c(=O)n2-c2ccccc2OC)cc1OC,-0.5,0,16,-4.7,1,-4,3.0,-1,14,-28
O=C1c2ccccc2S(=O)(=O)N1CC(O)COc1ccc(Br)cc1 (centres undefined),-0.7,·,48,-1.8,·,·,·,7,-12,-55
O=C(NCc1ccco1)Nc1ccc([N+](=O)[O-])cc1,-0.3,2,-4,-3.7,-17,-21,0.0,0,2,-2
CC(=O)N1CCC2(CC1)C/C(=N\NC(=S)Nc1ccccc1C)c1cc(O)ccc1O2,1.0,5,28,2.8,-10,-11,-13,-6,-7,3
O=C1C(=O)N(c2ccccn2)C(c2ccc(F)cc2)/C1=C(/O)c1ccc(Br)cc1 (centres undefined),-0.7,·,1,-1.1,6,0,0.9,-1,-16,16
S=c1[nH]nc(COc2ccccc2)n1/N=C/c1ccccn1,-0.1,-2,1,1.2,·,·,·,-1,-3,11
O=C(N/N=C/c1cccc(Oc2ccccc2)c1)c1ccccc1Br,0.3,·,-1,-6.0,-28*,-22*,-1.5*,-6,-36,-5
